Source: PubChem BioAssay
MEKK3 PB1 HTS: modulators (inhibitors or enhancers) of MEK5 binding to human MEKK3 PB1 domain; Q99759; bead-based flow cytometry, Alexa488-MEK5 binding to MEKK3; actives lie on both sides; 0 = blocked by unlabeled MEK5, 100 = vehicle; binding response (% of control), % at 10 µM; 1.4% of 290,000 active; AID 1529;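 active = binding response more than 3 SD above or below the average of its plate-row segment, actives on both sides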;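 also: Alexa488 bead fluorescence after subtracting the streptavidin-only scavenger bead signal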
Target sequence (Q99759 whole entry, looked up, the tested form may be a part): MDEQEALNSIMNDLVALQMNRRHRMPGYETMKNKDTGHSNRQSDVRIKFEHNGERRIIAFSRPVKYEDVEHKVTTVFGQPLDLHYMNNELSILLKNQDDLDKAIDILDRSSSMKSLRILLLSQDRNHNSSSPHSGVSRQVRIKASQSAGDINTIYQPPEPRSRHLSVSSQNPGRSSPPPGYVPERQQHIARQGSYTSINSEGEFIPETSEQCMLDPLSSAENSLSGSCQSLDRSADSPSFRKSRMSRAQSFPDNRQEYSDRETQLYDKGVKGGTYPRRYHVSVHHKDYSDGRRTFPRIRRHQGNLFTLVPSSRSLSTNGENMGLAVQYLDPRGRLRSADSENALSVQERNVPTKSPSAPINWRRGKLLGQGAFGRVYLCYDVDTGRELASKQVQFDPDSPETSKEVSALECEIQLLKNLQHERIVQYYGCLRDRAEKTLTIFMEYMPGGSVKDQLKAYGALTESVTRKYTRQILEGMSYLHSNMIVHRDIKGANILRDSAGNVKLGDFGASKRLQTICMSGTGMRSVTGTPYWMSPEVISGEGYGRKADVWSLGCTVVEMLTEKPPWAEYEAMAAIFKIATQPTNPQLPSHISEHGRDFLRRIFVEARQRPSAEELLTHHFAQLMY
NALP1 inh: NALP1 inhibition. S. cerevisiae NALP1/ASC/caspase-1 growth, X-gal OD620, 72 h. inhibition, % at 10 µM. 0.61% of 280,000 active. AID 2071; in the data active = inhibition mostly above about 24%, no sharp cut-off; inactive = mostly below about 32%; also: some compounds called inactive have numbers as strong as hits
GalR3 antag: antagonists of human GalR3. O60755. HEK293 GalR3-CNG cAMP membrane potential fluorescence; galR3 body fused to GalR1 C-terminus. inhibition, % at 3 µM. 0.44% of 360,000 active. AID 651719;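 active = inhibition above the screen-wide average plus 3 SD, cut at about 13% in these data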;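 also: forskolin and galanin both at EC90 stimulate the cells; cAMP rise reported by CNG channel membrane potential dye signal; 0% = forskolin plus galanin with DMSO and 100% = forskolin alone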
Target sequence (O60755 1-299 limits assumed): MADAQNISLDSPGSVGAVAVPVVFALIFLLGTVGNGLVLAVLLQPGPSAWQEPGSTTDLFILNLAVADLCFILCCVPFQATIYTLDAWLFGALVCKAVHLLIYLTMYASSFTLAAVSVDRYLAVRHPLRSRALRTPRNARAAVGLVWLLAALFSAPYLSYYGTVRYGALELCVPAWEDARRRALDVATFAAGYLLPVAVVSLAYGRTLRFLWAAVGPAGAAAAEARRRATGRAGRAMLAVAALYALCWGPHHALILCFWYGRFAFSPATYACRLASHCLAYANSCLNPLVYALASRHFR
MEKK2mut PB1 HTS: signal of MEK5 binding to mutant human MEKK2 PB1 domain. bead flow cytometry, Alexa488-MEK5 binding to MEKK2 mutant. percent response, % at 10 µM. 0.35% of 290,000 active. AID 1530; in the data active = percent response above about 24%, passing the limit was not always enough; also: inactives centre near 1; some results filed as inactive read as strong as hits; reference of the scale not given here
MEKK2 WT-MEK5: raises or lowers MEK5 binding to wildtype human MEKK2 PB1 domain. binding response (% of control), % at 10 µM. Q9Y2U5. 1.1% of 290,000 active. bead flow cytometry, Alexa488-MEK5 binding to MEKK2 WT; actives lie on both sides; in the data active = binding response below about 67% or above about 130%
PHOSPHO1 block: PHOSPHO1 (human) inhibition | 1.1% of 290,000 active | recombinant PHOSPHO1, absorbance phosphatase assay | inhibition, % at 13.3 µM | Q8TCT1; in the data active = inhibition above about 60%
GPR7 antagonist: blocks human GPR7 receptor signaling | GPR7-expressing cells, fluorescence antagonist assay | inhibition, % at 4.4 µM | 1.1% of 290,000 active | AID 1861; in the data active = inhibition above about 16%, passing the limit was not always enough;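 also: cells stimulated with the agonist NPW; 0% = agonist with vehicle and 100% = vehicle without agonist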
An asterisk follows results filed as active; . = not tested or not shown; & = joins results of further samples; [ ] = remark or other dose.

Field names: A = MEKK3 PB1 HTS; B = NALP1 inh; C = GalR3 antag; D = MEKK2mut PB1 HTS; E = MEKK2 WT-MEK5; F = PHOSPHO1 block; G = GPR7 antagonist
1) COc1cc(CNC(=O)CCCC/C=C/C(C)C)ccc1O
  A = .	B = .	C = -3.0	D = .	E = .	F = .	G = .

2) CCC(=O)OC1(C(=O)CCl)[C@@H](C)C[C@H]2[C@@H]3CCC4=CC(=O)C=C[C@]4(C)[C@@]3(F)[C@@H](O)C[C@@]21C (stereo partly drawn)
  A = .	B = .	C = -0.7	D = .	E = .	F = .	G = .

3) O=c1[nH]cnc2c1ncn2[C@H]1CC[C@@H](CO)O1
  A = 100.0&102.0	B = -3.7	C = .	D = 1.0&0.0	E = 101.0&98.0	F = 11.8	G = -15.7

4) CC(=O)O[C@H]1C[C@@H]2CC[C@@H]3[C@H](CC[C@@]4(C)[C@H]3C[C@H]([N+]3(C)CCCCC3)[C@@H]4OC(C)=O)[C@@]2(C)C[C@@H]1N1CCCCC1
  A = 104.0	B = .	C = .	D = 5.0	E = 108.0	F = .	G = .

5) CN/C(=C/[N+](=O)[O-])NCCSCc1ccc(CN(C)C)o1
  A = 91.0	B = 11.4	C = .	D = 6.0	E = 99.0	F = 37.8	G = -20.7

6) O=C(O)/C=C\C(=O)O
  A = .	B = .	C = -4.8	D = .	E = .	F = .	G = .

7) CC1(C)S[C@@H]2[C@H](NC(=O)[C@H](N)c3ccccc3)C(=O)N2[C@H]1C(=O)O
  A = 95.0&106.0	B = 14.5	C = -1.7&-2.2	D = 3.0&4.0	E = 98.0&93.0	F = 7.2	G = 6.2&-1.6

8) Cc1cc2cc3c(C)cc(=O)oc3c(C)c2o1
  A = 99.0	B = 14.8	C = 1.5	D = 2.0	E = 99.0	F = 37.5	G = 7.6

9) CC1(C)O[C@@H]2CC3C4C[C@H](F)C5=CC(=O)C=CC5(C)C4C(O)CC3(C)[C@]2(C(=O)CO)O1 (stereo partly drawn)
  A = .	B = .	C = -2.8	D = .	E = .	F = .	G = .

10) CCn1cc(C(=O)O)c(=O)c2cc(F)c(N3CCNCC3)cc21
  A = 74.0*[inhibitor]	B = 79.9	C = .	D = -4.0	E = 97.0	F = 8.4	G = 1.4

11) CN/C(=C\[N+](=O)[O-])NCCSCc1csc(CN(C)C)n1
  A = 103.0	B = .	C = -3.0	D = 2.0	E = 102.0	F = .	G = .

12) O=C(O)CCNC(=O)c1ccccc1
  A = 109.0	B = 19.9	C = .	D = 2.0	E = 105.0	F = 6.0	G = -8.3

13) Cn1cnc2c1c(=O)[nH]c(=O)n2C
  A = 105.0	B = -9.4	C = .	D = 1.0	E = 108.0	F = 31.1	G = .

14) CC[N+](C)(C)Cc1ccccc1Br
  A = 108.0	B = 11.1	C = -5.7	D = 4.0	E = 105.0	F = 8.4	G = -22.8

15) CCOC(=O)c1ncn2c1CN(C)C(=O)c1cc(F)ccc1-2
  A = 100.0&98.0	B = 8.3&15.9	C = -1.6	D = -1.0&1.0	E = 99.0&103.0	F = 51.7&6.0	G = -5.0&-7.3

16) CC(COc1ccccc1)N(CCCl)Cc1ccccc1 (stereo not drawn)
  A = 91.0	B = 12.2	C = -3.6	D = 4.0	E = 106.0	F = -11.2	G = -2.6

17) O=C1NCN(c2ccccc2)C12CCN(CCCC(c1ccc(F)cc1)c1ccc(F)cc1)CC2
  A = 113.0	B = 4.0	C = .	D = 25.0*	E = 207.0*	F = 8.0	G = -3.7

18) Cc1[nH]c(=O)c(C#N)cc1-c1ccncc1
  A = 116.0&101.0	B = 5.2	C = .	D = 8.0&-13.0	E = 119.0&88.0	F = 11.9	G = -10.8

19) CN1C2CCC1CC(OC(=O)c1c[nH]c3ccccc13)C2 (stereo not drawn)
  A = 100.0	B = 5.3	C = -1.8&-2.1	D = 4.0	E = 105.0	F = -51.0	G = 8.4

20) COC(=O)[C@@H]1[C@H]2C[C@H]3c4[nH]c5ccccc5c4CCN3C[C@@H]2CC[C@@H]1O
  A = 101.0&98.0	B = 8.7	C = .	D = 5.0&1.0	E = 109.0&101.0	F = 4.7	G = -16.5

Excerpt: nos. 9–17
Field names: A = MEKK3 PB1 HTS; B = NALP1 inh; C = GalR3 antag; D = MEKK2mut PB1 HTS; E = MEKK2 WT-MEK5; F = PHOSPHO1 block; G = GPR7 antagonist
9) CC1(C)O[C@@H]2CC3C4C[C@H](F)C5=CC(=O)C=CC5(C)C4C(O)CC3(C)[C@]2(C(=O)CO)O1 (stereo partly drawn)
  A = .	B = .	C = -2.8	D = .	E = .	F = .	G = .

10) CCn1cc(C(=O)O)c(=O)c2cc(F)c(N3CCNCC3)cc21
  A = 74.0*[inhibitor]	B = 79.9	C = .	D = -4.0	E = 97.0	F = 8.4	G = 1.4

11) CN/C(=C\[N+](=O)[O-])NCCSCc1csc(CN(C)C)n1
  A = 103.0	B = .	C = -3.0	D = 2.0	E = 102.0	F = .	G = .

12) O=C(O)CCNC(=O)c1ccccc1
  A = 109.0	B = 19.9	C = .	D = 2.0	E = 105.0	F = 6.0	G = -8.3

13) Cn1cnc2c1c(=O)[nH]c(=O)n2C
  A = 105.0	B = -9.4	C = .	D = 1.0	E = 108.0	F = 31.1	G = .

14) CC[N+](C)(C)Cc1ccccc1Br
  A = 108.0	B = 11.1	C = -5.7	D = 4.0	E = 105.0	F = 8.4	G = -22.8

15) CCOC(=O)c1ncn2c1CN(C)C(=O)c1cc(F)ccc1-2
  A = 100.0&98.0	B = 8.3&15.9	C = -1.6	D = -1.0&1.0	E = 99.0&103.0	F = 51.7&6.0	G = -5.0&-7.3

16) CC(COc1ccccc1)N(CCCl)Cc1ccccc1 (stereo not drawn)
  A = 91.0	B = 12.2	C = -3.6	D = 4.0	E = 106.0	F = -11.2	G = -2.6

17) O=C1NCN(c2ccccc2)C12CCN(CCCC(c1ccc(F)cc1)c1ccc(F)cc1)CC2
  A = 113.0	B = 4.0	C = .	D = 25.0*	E = 207.0*	F = 8.0	G = -3.7

Next section:
Field names: A = MEKK3 PB1 HTS; B = NALP1 inh; C = GalR3 antag; D = MEKK2mut PB1 HTS; E = MEKK2 WT-MEK5; F = PHOSPHO1 block; G = GPR7 antagonist
21) C#C[C@]1(O)CC[C@H]2[C@@H]3CCc4cc(OC)ccc4[C@H]3CC[C@@]21C
  A = 91.0	B = 14.9	C = -1.9	D = 3.0	E = 94.0	F = 1.1	G = 1.5

22) COc1ccc([C@@H]2Sc3ccccc3N(CCN(C)C)C(=O)[C@@H]2OC(C)=O)cc1
  A = 86.0	B = 13.0	C = -1.8	D = 4.0	E = 99.0	F = -6.3	G = -1.1

23) Cn1c(=O)c2c(ncn2C)n(C)c1=O
  A = 103.0	B = -0.3	C = .	D = 2.0	E = 107.0	F = 26.6	G = .

24) COc1cc(OC)c(C(=O)CCCN2CCCC2)c(OC)c1
  A = 93.0	B = 10.3	C = .	D = 1.0	E = 99.0	F = 6.0	G = 0.6

25) Cc1ncc([N+](=O)[O-])n1CCO
  A = 86.0&103.0	B = 9.8&-5.4	C = .	D = 5.0&3.0	E = 103.0&100.0	F = -13.6&27.7	G = -8.0&-13.4

26) Cc1cccc(CN2CCN(C(c3ccccc3)c3ccc(Cl)cc3)CC2)c1 (stereo not drawn)
  A = 106.0	B = 35.4	C = -0.9	D = 13.0	E = 155.0*	F = -1.4	G = -24.8

27) CCCCNC(=O)NS(=O)(=O)c1ccc(C)cc1
  A = 93.0	B = 14.0	C = -1.9	D = 4.0	E = 94.0	F = -11.2	G = 5.3

28) O=C(O)CCc1nc(-c2ccccc2)c(-c2ccccc2)o1
  A = 113.0&104.0	B = -15.4	C = .	D = 5.0&1.0	E = 117.0&101.0	F = 23.7	G = -14.7

29) Cc1cc(=O)n(-c2ccccc2)n1C
  A = .	B = .	C = -1.6	D = .	E = .	F = .	G = .

30) CC(C)NCC(O)COc1cccc2ccccc12 (stereo not drawn)
  A = 107.0	B = 3.8	C = .	D = 3.0	E = 106.0	F = 26.6	G = .

31) COc1cc(CNC(=O)CCCC/C=C\C(C)C)ccc1O
  A = 105.0&103.0	B = 5.3	C = .	D = 4.0&2.0	E = 109.0&98.0	F = -4.2	G = -9.4

32) Nc1ccn([C@@H]2O[C@H](CO)[C@@H](O)C2O)c(=O)n1 (stereo partly drawn)
  A = 100.0&98.0	B = -8.2	C = .	D = 0.0&-1.0	E = 102.0&97.0	F = 23.7	G = -7.2

33) CC(N)C12CC3CC(CC(C3)C1)C2 (stereo not drawn)
  A = 92.0&103.0	B = -10.2	C = -5.9	D = -13.0&4.0	E = 94.0&97.0	F = 36.4&23.8	G = -11.0&-9.6

34) COc1c(N2CCNC(C)C2)c(F)cc2c(=O)c(C(=O)O)cn(C3CC3)c12 (stereo not drawn)
  A = 100.0	B = .	C = .	D = 2.0	E = 99.0	F = .	G = .

35) CC(=O)O[C@H]1C(=O)[C@@]2(C)[C@H]([C@H](OC(=O)c3ccccc3)[C@]3(O)C[C@H](OC(=O)[C@H](O)C(NC(=O)c4ccccc4)c4ccccc4)C(C)=C1C3(C)C)[C@]1(OC(C)=O)CO[C@@H]1C[C@@H]2O (stereo partly drawn)
  A = 115.0	B = 9.7	C = .	D = 4.0	E = 111.0	F = -9.6	G = .

36) CCCCNc1cc(C(=O)O)cc(S(N)(=O)=O)c1Oc1ccccc1
  A = 87.0	B = 17.7	C = 1.7	D = -1.0	E = 16.0*[inhibitor]	F = -6.3	G = -12.2

37) CCCC(=O)Nc1ccc(OCC(O)CNC(C)C)c(C(C)=O)c1 (stereo not drawn)
  A = 93.0	B = 28.7	C = -4.6	D = 5.0	E = 87.0	F = 6.0	G = -4.2

38) Cc1ccc(S(=O)(=O)NC(=O)NN2CCCCCC2)cc1
  A = 93.0	B = 9.2	C = -2.3	D = 4.0	E = 103.0	F = 1.1	G = -6.0

39) CN=C(NC#N)NCCSCc1nc[nH]c1C
  A = 85.0	B = 10.2	C = .	D = 6.0	E = 96.0	F = 10.9	G = -7.3

40) COc1ccc2c(c1)c(CC(=O)OCC(=O)O)c(C)n2C(=O)c1ccc(Cl)cc1
  A = 117.0	B = -23.2	C = -0.2	D = 8.0	E = 99.0	F = -10.0	G = -21.9

Some of the compounds tested. The share of hits here may be higher or lower than overall.
